KCNQ2 pot – KCNQ2 (rat) channel potentiation | O88943 | CHO-K1 KCNQ2, FluxOR thallium flux fluorescence; hits give high values | B-score at 10 µM | 0.54% of 310,000 active | AID 2239;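 active means fluorescence ratio B-score at least 3 SD of library B-scores, with initial fluorescence B-score within 3 SD, cut at about 5.3 in these data; same plate scores as AID 2156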;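 further: B-score of peak minus minimum over baseline fluorescence ratio after K+ and Tl+ stimulus; positive B-score means potentiation of KCNQ2 with more thallium influx and brighter signal; only the inactives scoring about 0 or higher are listed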
Target sequence (O88943 whole entry, looked up): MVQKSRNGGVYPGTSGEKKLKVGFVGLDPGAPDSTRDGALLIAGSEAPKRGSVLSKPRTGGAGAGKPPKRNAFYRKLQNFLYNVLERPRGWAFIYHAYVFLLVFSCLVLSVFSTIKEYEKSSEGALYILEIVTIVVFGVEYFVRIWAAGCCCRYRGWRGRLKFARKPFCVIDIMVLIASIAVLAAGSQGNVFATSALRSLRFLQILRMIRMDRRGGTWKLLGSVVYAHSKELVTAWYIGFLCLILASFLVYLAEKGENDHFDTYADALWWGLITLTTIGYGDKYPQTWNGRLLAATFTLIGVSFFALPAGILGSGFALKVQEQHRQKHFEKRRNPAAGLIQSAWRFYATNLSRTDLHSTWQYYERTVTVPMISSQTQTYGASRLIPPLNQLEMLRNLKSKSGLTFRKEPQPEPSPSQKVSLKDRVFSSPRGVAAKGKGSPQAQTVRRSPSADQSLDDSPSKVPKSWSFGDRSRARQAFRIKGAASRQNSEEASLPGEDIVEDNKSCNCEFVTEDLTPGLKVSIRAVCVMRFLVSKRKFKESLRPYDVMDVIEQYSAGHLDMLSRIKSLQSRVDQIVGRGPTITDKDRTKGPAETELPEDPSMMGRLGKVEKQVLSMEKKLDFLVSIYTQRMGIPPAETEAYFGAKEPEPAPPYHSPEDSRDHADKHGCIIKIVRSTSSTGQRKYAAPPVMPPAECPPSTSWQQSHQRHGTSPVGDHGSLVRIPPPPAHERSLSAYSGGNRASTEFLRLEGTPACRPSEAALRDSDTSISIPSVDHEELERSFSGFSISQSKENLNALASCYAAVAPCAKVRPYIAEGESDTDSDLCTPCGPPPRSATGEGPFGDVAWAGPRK
KCNQ2 pot baseline – further read-out of KCNQ2 pot, marked with its call; B-score; compound at 10 µM; measured here: initial fluorescence intensity artifact check;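 brightness before thallium and not channel activity; 0 = typical well and far values either way flag optical interference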
The depositor's hits bear a star.

nr	Structure	KCNQ2 pot	KCNQ2 pot baseline
1	COC(=O)c1ccc(S(=O)(=O)NCc2ccc(S(N)(=O)=O)cc2)o1	1.4	2
2	Cc1oc(-c2ccc(Cl)cc2)nc1CS(=O)CC(=O)NCc1cccs1 (centres undefined)	0.12	2.5
3	O=C1OCC(c2ccccc2)=C1c1ccccc1	1	0.87
4	Cc1cc(=O)[nH]c(SCC(=O)Nc2nc(-c3ccccc3)c(-c3ccccc3)o2)n1	1.3	-1.4
5	c1ccc2c(c1)nnn1c3ccccc3nc21	1.1	-0.1
6	Cc1cccc(-n2cc[nH]c2=S)c1	0.69	1.4
7	Nc1ccc(C(=O)Nc2ccc(NC(=O)c3ccco3)c(O)c2)cc1	1.3	-2.7
8	CNS(=O)(=O)c1cc(O)c2c(S(=O)(=O)NC)cccc2c1	0.08	2.9
9	CC(C)c1ccc(OCC(=O)Nc2ccc(OC(F)(F)F)cc2)cc1	4.9	-1.1
10	CCc1nnc(NS(=O)(=O)c2ccc(NC(=S)NC(=O)c3cccs3)cc2)s1	0.03	0.9
11	Cc1occc1-c1nnc(SCC(=O)N2CCN(c3ccccc3F)CC2)n1C	0.02	-1.6
12	Cc1n[nH]c(C)c1CCCCOc1ccc([N+](=O)[O-])cc1	2.3	-0.61
13	C=Cn1cc[n+](CC(=O)c2cc(C(C)(C)C)c(O)c(C(C)(C)C)c2)c1	0.8	-0.84
14	CC(=O)c1c(C)[nH]c(C(=O)NCc2ccccc2)c1C	0.05	-0.03
15	Oc1c(N=NC(=S)Nc2ccccc2F)c2ccccc2n1Cc1ccccc1	0.01	-0.59

nr	Structure	KCNQ2 pot	KCNQ2 pot baseline
16	COc1ccc(S(=O)(=O)Nc2ccc3c(c2)n(C)c(=O)n3C)cc1OC	1.1	1
17	Cc1csc(NC(=O)c2ccc[nH]c2=O)n1	0.83	0.03
18	CN1CCN(c2nc3c(c(=O)n(C)c(=O)n3C)n2Cc2ccc(Cl)cc2)CC1	3	1.4
19	COC(=O)c1cc(Br)ccc1NC(=O)Nc1ccc(C)cc1	1.3	-1.2
20	Cc1nc(-c2ccc(Br)cc2)ccc1C(=O)O	1.8	-2.5
21	Cc1[nH]c2ccccc2c1C(c1ccncc1)N1CCN(c2ccccc2F)CC1 (centres undefined)	0.27	0.09
22	CC(C)NS(=O)(=O)c1cccc2nsnc12	0.02	2.4
23	Cc1cc(C)n(CC(=O)Nc2ccc(N3CCOCC3)c(Cl)c2)c(=O)c1C#N	1.5	-1.5
24	Cc1cc2c(cc1C)-c1c(ssc1=Nc1ccc(S(N)(=O)=O)cc1)C(C)(C)N2	2.7	-1.3
25	COc1cccc(CNc2ncc(Br)cc2Br)c1O	0.02	0.23
26	Cc1ccc(C(=O)N2CCN(Cc3ccc4c(c3)OCO4)CC2)cc1S(=O)(=O)N1CCOCC1	1.6	0.44
27	COc1ccc2c3c([nH]c2c1)C1(NCC3)C(=O)Nc2ccccc21 (centres undefined)	0.45	0.73
28	CC1=Nc2cc(Cl)ccc2Oc2ccccc21	0.01	-0.11
29	CC(C)(C)OC(=O)N1Cc2ccccc2C[C@H]1C(=O)NCC(=O)Nc1ccc2c(c1)OCCO2	1	-0.03
30	O=C(N/N=C/c1c[nH]c2ccccc12)c1cc(Br)ccc1O	1.2	-1.2

nr	Structure	KCNQ2 pot	KCNQ2 pot baseline
31	COc1ccccc1/C=C1\SC(=O)N(CCC(=O)NNC(=O)c2ccccc2Cl)C1=O	0.72	-0.72
32	Cc1cccc(NC2=NC(C)(C)N=C(N)N2)c1	1.3	0.06
33	Cc1cccc(NC(=O)c2cccc(NC(=O)Cc3cccs3)c2)c1	0.05	-1.1
34	CCN(CC)c1nc(N)nc(NS(=O)(=O)c2ccc(Cl)cc2)n1	0.15	-0.34
35	COc1cc(/C=C(\C#N)c2ccccn2)ccc1OCc1ccc(Cl)cc1	0.32	0.11
36	CCOCCCNC(=O)Cn1cc2c(n1)CCCC2	1.7	-1.3
37	O=C(c1ccccc1NS(=O)(=O)c1ccccc1[N+](=O)[O-])N1CCCC1	0.21	-0.29
38	Cc1ccc(Cl)c(Nc2ccccc2C(=O)O)c1Cl	1	0.2
39	O=C(CSCc1c(Cl)cccc1Cl)NCC1CCCO1 (centres undefined)	1.4	0.08
40	COc1cc(OC)c(C2=NOC(C(=O)N3CCCc4ccccc43)C2)cc1Cl (centres undefined)	0.18	-0.53
41	CCCOc1ccccc1/C=N/Nc1ccnc(=O)[nH]1	0.85	0.61
42	CC1=C(C(=O)OC2CCCCCC2)C(c2ccc(C)o2)C2=C(CCCC2=O)N1 (centres undefined)	0.82	-1.1
43	COc1cc(NC(=O)C/C(C)=N/NC(=O)C(OC)c2ccccc2)c(OC)cc1Cl (centres undefined)	1.1	-1.3
44	O=C(CN1CCN(c2ccc(F)cc2)CC1)N1CCOCC1	0.15	0.25
45	S=c1[nH]nc(C2(c3ccccc3)CCCC2)o1	0.3	2.4

nr	Structure	KCNQ2 pot	KCNQ2 pot baseline
46	O=C(NCc1cccnc1)c1nnc(Cc2ccc(F)cc2)o1	0.61	-1.7
47	O=C(Nc1ccc(Cl)cc1Cl)C1CCC(=O)N1Cc1ccccc1Cl (centres undefined)	1.6	0.06
48	Clc1ccc(CSc2nnc3ccccn23)c(Cl)c1	0.02	2.2
49	CC1CCCCN1S(=O)(=O)c1ccc(C(=O)Nc2nnc(-c3cccs3)o2)cc1 (centres undefined)	0.16	-2
50	CCC(=O)Nc1ccc(S(=O)(=O)NCCc2ccccc2)cc1	1.1	0.12
51	Nn1cc(-c2ccccc2)nc1SCC(=O)N1CCN(S(=O)(=O)c2ccc(Cl)cc2)CC1	0.1	-1.1
52	Cc1nc(SCc2ccc(F)cc2)c([N+](=O)[O-])[nH]1	2.5	0.24
53	Cc1nc(NCC2CCCO2)nc2c1C(=O)CC(C)C2 (centres undefined)	1.1	-1.9
54	CSCCC(NC(=O)c1ccccc1)C(=O)N/N=C(\C)Cc1ccccc1 (centres undefined)	0.02	-0.44
55	NC(=O)c1ccsc1NC(=O)CSc1ccccc1F	0.05	0.67
56	COc1ccc(O)c(C(c2c(C)[nH][nH]c2=O)c2c(C)[nH][nH]c2=O)c1	0.84	-0.3
57	COc1ccc(S(=O)(=O)NC2CC(=O)N(c3cccc(F)c3)C2)cc1OC (centres undefined)	2.4	-2.1
58	CN(NC(=O)c1ccc(Cl)cc1)c1nc(-c2ccccc2)nnc1C(F)(F)F	0.18	0.81
59	COc1ccccc1-n1cc(CN2CCN(C3CCCC3)C(CCO)C2)cn1 (centres undefined)	1.6	0.1
60	Cc1cc(=O)c2ccc3ccccc3c2[nH]1	0.02	-1.1

An excerpt of these results, as labelled records:
56. COc1ccc(O)c(C(c2c(C)[nH][nH]c2=O)c2c(C)[nH][nH]c2=O)c1
  KCNQ2 pot = 0.84
  KCNQ2 pot baseline = -0.3
57. COc1ccc(S(=O)(=O)NC2CC(=O)N(c3cccc(F)c3)C2)cc1OC (centres undefined)
  KCNQ2 pot = 2.4
  KCNQ2 pot baseline = -2.1
58. CN(NC(=O)c1ccc(Cl)cc1)c1nc(-c2ccccc2)nnc1C(F)(F)F
  KCNQ2 pot = 0.18
  KCNQ2 pot baseline = 0.81
59. COc1ccccc1-n1cc(CN2CCN(C3CCCC3)C(CCO)C2)cn1 (centres undefined)
  KCNQ2 pot = 1.6
  KCNQ2 pot baseline = 0.1

(listing goes on)
nr	Structure	KCNQ2 pot	KCNQ2 pot baseline
61	Cc1cc(-c2ccccc2)[nH]c(=O)c1S(=O)(=O)c1ccccc1	2.4	-0.25
62	O=C(CNC(=S)N(Cc1ccccc1F)C1CCCCC1)NCCN1CCOCC1	0.06	-0.05
63	CCc1nc2oc3ccccc3c(=O)c2c(=O)n1Cc1ccc(OC)cc1	1.9	-2.4
64	Cc1cc([N+](=O)[O-])ccc1NCc1ccco1	0.17	0.73
65	COc1ccc(C(=O)NNC(=S)Nc2ccccc2)cc1	1.4	-1.9
66	Cc1cc(C)cc(NC(=O)CCc2nc3sc4c(c3c(=O)[nH]2)CCCC4)c1	0.86	-0.64
67	CCOC(=O)c1cc(NC(=O)CNCC(c2ccccc2)N(C)C)cc(C(=O)OCC)c1 (centres undefined)	0.37	-2
68	CC(=O)Nc1cc(Cl)ccc1OS(=O)(=O)c1ccc(C)cc1	0.01	0.36
69	CC12CCC(C(=O)N(c3ccccn3)c3ccccn3)(OC1=O)C2(C)C (centres undefined)	1.2	-0.8
70	COc1ccc(/C=C(\NC(=O)c2ccccc2)C(=O)NNC(=O)CCN2CCOCC2)cc1	0.95	-1.2
71	COc1cccc(-c2nc(CS(=O)CC(=O)NC3CCCC3)c(C)o2)c1 (centres undefined)	1.6	0.13
72	CCc1ccc(-c2nnn(Cc3nc4ccccc4s3)n2)cc1	0.02	2.1
73	Cc1ccccc1Oc1ncnc2sccc12	1.9	1.3
74	Oc1ccc(N=Nc2n[nH]c(-c3ccccc3)n2)cc1	2.9	-2.4
75	O=C(O)COc1ccc(/C=C/c2nc(-c3ccccc3O)n[nH]2)cc1	0.1	-0.37

nr	Structure	KCNQ2 pot	KCNQ2 pot baseline
76	Cc1oc(-c2ccccc2)cc1C(=O)Nc1cccc(/C=C/C(=O)O)c1	1.3	-1.1
77	CCN(CC)S(=O)(=O)c1cccc(-c2nnc(SCC(N)=O)n2C)c1	0.05	0.61
78	Cc1c(-c2nc(N)nc(Nc3ccccc3F)n2)oc2ccccc12	0.86	0.08
79	CCCCN(C(=O)c1[nH]c(C)c(C(C)=O)c1C)c1c(N)n(CCCC)c(=O)[nH]c1=O	0.97	0.03
80	Nn1c(SC/C=C/c2ccccc2)nnc1-c1ccco1	0.02	-1.4
81	CCN1CCCC1Cn1cnc2c([nH]c3ccc(C)cc32)c1=O (centres undefined)	1.4	0.24
82	CCOC(=O)C[C@H]1c2ccccc2S(=O)(=O)N1Cc1cccc(C(F)(F)F)c1	0.59	0.05
83	CC(=O)n1cc(/C=N/NC(=O)c2ccc([N+](=O)[O-])cc2)c2ccccc21	1.2	0.41
84	COc1ccccc1N1CCN(CCN2C(=O)CC3(CCCC3)CC2=O)CC1	0.12	-1.8
85	O=C(Nc1cccnc1)c1ccc(F)cc1	1.1	-0.3
86	CC(=O)CSc1ncnc2sc3c(c12)CCCC3	2	-1.6
87	O=c1cc(N2CCOCC2)c2ccccc2o1	0.62	0.07
88	CC1CCCCC1NC(=S)Nc1ccc(Cl)cc1Cl (centres undefined)	1.1	0.45
89	CNC(=O)CN(c1ccc(OC)cc1)S(=O)(=O)c1ccc(F)cc1	1.3	-0.06
90	O=C(CCc1ccccc1)NCCc1cccs1	0.9	-0.92

nr	Structure	KCNQ2 pot	KCNQ2 pot baseline
91	O=C(COc1ccc(Nc2ccccc2)cc1)OCC(=O)N1CCCCC1	1.4	0.96
92	CCOP(=O)(OCC)C(Nc1ccc(C(=O)O)cc1)c1ccccc1 (centres undefined)	0.79	0.54
93	Cc1ccc(NC(=O)CCN2CCOCC2)cc1C	2.3	0.36
94	CCn1ncc(C(=O)Nc2ccccc2C)c1C	1.4	0.31
95	CN(C)/C(Cn1cncn1)=C1/N=C(c2ccccc2)OC1=O	1.5	0.01
96	C/C(=N\O)C(C)(C)Nc1ccc(F)cc1	2.6	-0.37
97	Fc1ccccc1OCCCCSc1ncccn1	0.05	-0.34
98	O=C(NC(Cc1c[nH]c2ccccc12)C(=O)O)/C(=C/c1ccc2c(c1)OCO2)NC(=O)c1ccccc1 (centres undefined)	0.49	-1
99	Nc1c(Cl)cc(NC(=O)c2ccccc2C(=O)O)cc1Br	1	-2.1
100	CC(=O)Nc1ccc(NC(=O)COc2ncnc3ccccc23)cc1	0.78	0.01
101	COc1ccc(NC(=O)Nc2ccc(Cc3ccncc3)cc2)cc1OC	0.71	-0.33
102	Cc1ccc(N=C2NC(=O)/C(=C/c3cccn3C)S2)cc1	0.14	2.3
103	CCCN(CC(=O)Nc1ccc(OC)c(OC)c1)CC(=O)Nc1ccc(F)c(F)c1F	0.62	-1.1
104	Cc1ccc(C)c(S(=O)(=O)N2CCCC2CNC(=O)C(=O)NCc2ccccn2)c1 (centres undefined)	0.79	-0.06
105	O=C(NCc1ccco1)c1nc2nc(-c3cccs3)cc(C(F)(F)F)n2n1	0.75	0.58

nr	Structure	KCNQ2 pot	KCNQ2 pot baseline
106	COC(=O)[C@@]12CCCCN1[C@H](c1ccc(SC3CCCCC3)cc1)[C@H]1C(=O)N(C)C(=O)[C@H]12	0.5	1.3
107	Cc1ccc(C)c(NC2=CC(=O)CC(C)(C)C2)c1C#N	0.29	1.9
108	COC(=O)Cn1c(=O)c2c(n(Cc3ccccc3)c1=O)N/C(=C/c1ccc(Br)cc1)C2=O	0.13	0.71
109	Cc1cc(NC(=O)CSc2nc(-c3cccnc3)ccc2C#N)no1	0.72	1.3
110	Cc1cccc(C(C(=O)NC2CCCCC2)N(C(=O)c2csnn2)C2CC2)c1 (centres undefined)	1.3	-0.4
111	CC(C)CN(C(=O)COC(=O)CNC(=O)c1ccc(Cl)cc1)C1CCS(=O)(=O)C1 (centres undefined)	0.06	7.3
112	COC(=O)Cn1ncc(N2CC(C)OC(C)C2)c(Cl)c1=O (centres undefined)	0.69	0.55
113	CC(Sc1nc2ccccc2[nH]1)C(=O)NC1CCCCC1C (centres undefined)	1	-0.37
114	Cc1cccc(/C(N)=N/OC(=O)CCCN2C(=O)c3ccccc3C2=O)c1	1.6	0.36

Source: PubChem BioAssay (Johns Hopkins Ion Channel Center)

The list is partial; count on the stated rates, not on these rows.
